Screening results deposited in PubChem BioAssay by National Center for Advancing Translational Sciences (NCATS).
ClpP mod – qHTS Assay for Activators of ClpP; Potency, µM (doses to about 57.5 µM), for inactives: at the top dose activity change, negative = active; AID 651965, 2013; purified B. subtilis ClpP, FRET peptide cleavage, 20 min; 340,000 tested, 1.9% active; ATP-dependent Clp protease proteolytic subunit (Bacillus subtilis (strain 168)), P80244; active = well fitted falling curve with a large enough effect; inconclusive = small, poorly fitted or top-dose-only effect; inactive = no such curve, though single readings can be large or run the other way; note: the source files actives as falling curves though it sought activators and does not explain the sign; nearly all actives have a fitted effect of over 65% in size; many hits overshoot -100%
Target sequence (P80244 whole entry, looked up): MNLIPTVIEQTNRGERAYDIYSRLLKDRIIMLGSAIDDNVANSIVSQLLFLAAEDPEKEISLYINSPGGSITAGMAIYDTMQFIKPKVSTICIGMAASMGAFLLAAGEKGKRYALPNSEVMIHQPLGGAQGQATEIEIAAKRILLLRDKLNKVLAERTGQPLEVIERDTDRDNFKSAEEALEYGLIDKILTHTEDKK
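Buffer: 100 mM Tris/HCl pH8, 100 mM KCl, 0.05% low protease BSA, 2.5% glycerol, 0.01% Tween-20. ClpP 10 microg/mL final; 20 min RT; delta FRET normalized to ADEP and DMSO controls.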
* marks the source's active call; other numbers are inactive results; ? = inconclusive. Potency is the fitted concentration of half-maximal effect.

SMILES	ClpP mod
COC(=O)c1ccccc1NC(=O)c1sc2nc(C)cc(C)c2c1NC(=O)c1ccccc1OC	?
Cc1cc(C)n(C(C)CC(=O)NCc2ccccc2C)n1 (stereo unspecified)	-0.3%
CCc1cccc(NC(=O)CCn2nc(C)cc2C)c1	-1.1%
Cc1ccc(N2C(=O)CS(=O)(=O)C23C(=O)N(Cc2ccc(Cl)cc2)c2ccccc23)cc1C (stereo unspecified)	2.1%
O=C(c1cccc(Cl)c1)N1c2nc(-c3ccco3)nn2C2(CCCCC2)[C@@H]2CCCC[C@@H]21	-2.1%
O=C(Nc1ccc2ccccc2c1)c1nc(S(=O)(=O)Cc2ccccc2F)ncc1Cl	-22%
Cn1nc(-c2ccc(F)cc2)nc2c(=O)n(C)c(=O)nc1-2	0.0%
Cc1ccc(S(=O)(=O)NCC(c2ccco2)N2CCN(c3ccccc3F)CC2)cc1 (stereo unspecified)	1.2%
Cc1ccc(Cl)cc1N1CCN(C(=O)c2cnc(N3CCOCC3)c3ccccc23)CC1	32µM*
Cc1nn(-c2ccccc2)c(OC(=O)c2ccccc2Cl)c1S(=O)(=O)c1ccccc1	1.4%
CCc1ccc(C(=O)c2cn(CC(=O)Nc3cccc(C)c3C)c3nc(C)ccc3c2=O)cc1	-4.4%
O=C(Cn1c(=O)n(CCCS(=O)(=O)C2CCCCC2)c(=O)c2ccccc21)Nc1ccc(F)c(Cl)c1	1.4%
Cc1ccc(C)c(NC(=O)CSc2nc(=O)n(Cc3ccncc3)c3c2CCC3)c1	-11%
Cc1ccccc1CSc1nc(-c2cccc(F)c2)nc2c1Cc1c(CO)cnc(C)c1O2	0.8%
Cn1c(=O)n(C)c2cc(N3CCCCC3)c(NC(=O)c3ccc(C(C)(C)C)cc3)cc21	-1.3%
CCn1c2c(c(=O)n3ncc(C(=O)Nc4cc(Cl)ccc4OC)c13)CN(Cc1ccc(OC)cc1)CC2	32µM*
CCCCCn1c(CCCNC(=O)c2cccc(C)c2)nc2ccccc21	-7.1%
Cc1ccc(F)cc1NC(=O)CCSc1nc(-c2ccco2)cc(C(F)(F)F)n1	-13%
CN(C)CCCN(C(=O)c1ccc2c(c1)OCCO2)c1nc2ccccc2s1	0.7%
COc1cccc(CNC(=O)c2ccc3c(c2)nc2n3CCC(C)C2)c1OC (stereo unspecified)	-2.1%
O=C(c1ccc(Nc2nc3ccccc3n3nnnc23)cc1)N1CCN(c2cccc(C(F)(F)F)c2)CC1	?
COc1ccc(S(=O)(=O)N2CCN(c3cccc(C)c3C)CC2)c2ccccc12	-4.2%
CCc1ccccc1NC(=O)CCn1cccn1	1.1%
O=C(C[n+]1ccncc1)c1ccc2c(c1)CCCC2	0.5%
COc1ccc(CCNC(=O)CSc2cn(CCNC(=O)c3cccc(C(F)(F)F)c3)c3ccccc23)cc1OC	0.4%

Structures shown so far containing an aryl methoxy group:
SMILES	ClpP mod
COC(=O)c1ccccc1NC(=O)c1sc2nc(C)cc(C)c2c1NC(=O)c1ccccc1OC	?
CCn1c2c(c(=O)n3ncc(C(=O)Nc4cc(Cl)ccc4OC)c13)CN(Cc1ccc(OC)cc1)CC2	32µM*
COc1cccc(CNC(=O)c2ccc3c(c2)nc2n3CCC(C)C2)c1OC (stereo unspecified)	-2.1%
COc1ccc(S(=O)(=O)N2CCN(c3cccc(C)c3C)CC2)c2ccccc12	-4.2%
COc1ccc(CCNC(=O)CSc2cn(CCNC(=O)c3cccc(C(F)(F)F)c3)c3ccccc23)cc1OC	0.4%

Continued.
SMILES	ClpP mod
Cc1ccc(-c2nc(S(=O)(=O)c3ccc(C)cc3)c(N3CCCCCC3)o2)cc1	-1.1%
CCOC(=O)N1CCc2c(sc(NCc3sccc3C)c2C(=O)Nc2ccccc2OCC)C1	1.0%
Cc1ccc(-c2cnc(C3CC3)o2)cc1S(=O)(=O)Nc1ccc(F)cc1Cl	-4.4%
Cc1cccn2c(=O)c3cc(C#N)c(=O)n(-c4nnc(SCc5ccc(F)cc5)s4)c3nc12	4.0%
CCOC(=O)c1cc2c(=O)n3ccccc3nc2n(CC(C)C)c1=NC(=O)C(C)(C)Oc1ccc(Cl)cc1	3.8%
CCCC(=O)N(c1ccc2oc(C)c(C(C)=O)c2c1)S(=O)(=O)c1ccc(CC)cc1	-1.5%
CC(C)(C)OC(=O)N1CCC(c2c(C(=O)NCCN3CCOCC3)cnn2-c2ccccc2)CC1	1.7%
CN(CC(=O)NCc1ccccc1Cl)S(=O)(=O)c1ccc2c(c1)c(=O)n(C)c(=O)n2C	-5.8%
CCCCNC(=O)C(CC)Sc1nc2ccccc2c(=O)n1Cc1ccco1 (stereo unspecified)	0.6%
O=C(Cc1ccccc1)Nc1c(C(=O)Nc2ccccc2F)oc2ccccc12	-2.9%
Cc1ccc2c(c1)C(=O)OC(C(=O)Nc1ncc(Cc3ccccc3)s1)C2 (stereo unspecified)	1.1%
Cc1ccc(NC(=O)Cn2c(=O)n(CCC(=O)NCCc3ccccc3)c(=O)c3ccccc32)cc1	-0.9%
N#Cc1ccccc1Cn1c(=O)n(CCCCC(=O)NCc2ccc3c(c2)OCO3)c(=O)c2ccccc21	-2.3%
CC1CCc2c(sc(NC(=O)c3cc(-c4ccc(Br)cc4)on3)c2C(N)=O)C1 (stereo unspecified)	-2.8%
CCOc1ccc(NC(=O)Cn2c(=O)n(CCCCCC(=O)NCc3ccccc3)c(=O)c3sccc32)cc1	1.2%
O=C(Nc1ccc(F)cc1)c1oc2ccccc2c1NC(=O)C12CC3CC(CC(C3)C1)C2	-2.2%
COc1ccc2c(c1)c(N1CCCC1=O)c(C(=O)Nc1ccc(OC)c(Cl)c1)n2C	-6.4%
O=C(COCc1cc(-c2cccs2)on1)Nc1cc(Cl)ccc1O	-3.7%
NC(=O)c1cc(S(=O)(=O)NCC2CCC(C(=O)Nc3cccc(Cl)c3)CC2)cs1 (stereo unspecified)	-2.8%
CCC1CCCCN1S(=O)(=O)c1ccc(NC(=O)c2nc(SC)ncc2Cl)cc1 (stereo unspecified)	-5.5%
CCOc1ccc2oc(=O)cc(CN3CCN(c4ccccc4OC)CC3)c2c1	-17%
Cc1ccc(-c2nc3scc(CCNS(=O)(=O)c4ccc(C)c(C)c4)n3n2)cc1	1.3%
COC(=O)c1ccc(NC(=O)CCc2c(C)nc3c(c(C)nn3-c3ccc(C)cc3)c2C)cc1	4.5%
Cn1c(=O)[nH]c2cc(-c3noc(-c4ccc(F)cc4)n3)ccc21	1.4%
CCOc1ccc(NC(=O)Cn2c(=O)cc(C)c3c(C)nn(C)c32)cc1	-4.7%

Of the compounds above, these have a CF3 group.
SMILES	ClpP mod
Cc1ccc(F)cc1NC(=O)CCSc1nc(-c2ccco2)cc(C(F)(F)F)n1	-13%
O=C(c1ccc(Nc2nc3ccccc3n3nnnc23)cc1)N1CCN(c2cccc(C(F)(F)F)c2)CC1	?
COc1ccc(CCNC(=O)CSc2cn(CCNC(=O)c3cccc(C(F)(F)F)c3)c3ccccc23)cc1OC	0.4%

Of the compounds above, these have two or more sulfur atoms:
SMILES	ClpP mod
CCOC(=O)N1CCc2c(sc(NCc3sccc3C)c2C(=O)Nc2ccccc2OCC)C1	1.0%
Cc1cccn2c(=O)c3cc(C#N)c(=O)n(-c4nnc(SCc5ccc(F)cc5)s4)c3nc12	4.0%
NC(=O)c1cc(S(=O)(=O)NCC2CCC(C(=O)Nc3cccc(Cl)c3)CC2)cs1 (stereo unspecified)	-2.8%
CCC1CCCCN1S(=O)(=O)c1ccc(NC(=O)c2nc(SC)ncc2Cl)cc1 (stereo unspecified)	-5.5%
Cc1ccc(-c2nc3scc(CCNS(=O)(=O)c4ccc(C)c(C)c4)n3n2)cc1	1.3%

Additional records follow:
SMILES	ClpP mod
COc1cccc(/C=C/c2onc(C)c2S(=O)(=O)N2CCC(C(=O)N3CCCCC3)CC2)c1	-20%
COc1ccccc1CCNC(=O)Cn1ccc2cc(S(=O)(=O)N3CCCCCC3)ccc21	-6.0%
Cc1ccc(-n2ncc3c(Nc4cccc(Cl)c4)ncnc32)c(C)c1	4.4%
Cc1ccc(CN2C(=O)c3ccccc3C2C(=O)NC2CCCCCC2)cc1 (stereo unspecified)	-1.2%
COc1ccccc1-n1nc(-c2ccccc2)c2cnc3cc(C(F)(F)F)ccc3c21	-2.9%
CCOC(=O)c1ccc(Nc2c(-c3ccc(O)c(OC)c3)nc3nc[nH]n23)cc1	1.6%
COc1ccc(NC(=O)C2CCCN(S(=O)(=O)c3ccc4c(c3)CCCC(=O)N4)C2)c(OC)c1 (stereo unspecified)	-1.5%
COC(=O)c1cc(NC(=O)c2ccc3c(c2)N(Cc2cccc(Cl)c2)C(=O)c2ccccc2S3=O)cc(C(=O)OC)c1 (stereo unspecified)	-10%
Cc1ccc(CNC(=O)CCCn2c(=O)c3ccccc3n(CC(=O)Nc3ccc(C)cc3)c2=O)cc1	-1.9%
O=C(c1ccc(F)cc1)N1CCC(c2nc3ccccc3s2)CC1	-2.2%
CC(C)(C)OC(=O)N1CCC(c2c(C(=O)NCCN3CCC(Cc4ccccc4)CC3)cnn2-c2cccc(Cl)c2)CC1	-1.8%
CCc1nn(CC(=O)N2CCC(C)CC2)c(=O)c2cc3occc3n12	-0.6%
CC(=O)c1ccc(NC(=O)c2nc(-c3ccc(Cl)cc3)n3c2CCCCC3)cc1	0.3%
CCN(CC)CCNC(=O)c1cc2c(=O)oc3ccc(C)cc3c2s1	3.0%
COCCn1c(C)cc(O)c(C(c2ccccc2Cl)N2CCN(c3ccccc3)CC2)c1=O (stereo unspecified)	2.1%
COc1ccc(NC(=O)Cn2c(=O)n(Cc3ccccc3Cl)c(=O)c3cc(OC)c(OC)cc32)cc1	-16%
Cc1cccn2c(=O)c(/C=C(\C#N)c3nc4ccccc4[nH]3)c(Oc3ccc(C(C)(C)C)cc3)nc12	-1.4%
CCCC(=O)Nc1cccc(-c2nc3ncccc3o2)c1	4.2%
CC(C)c1ccc(NC(=O)C(Cc2ccccc2)NS(=O)(=O)c2ccc3c(c2)oc(=O)n3C)cc1 (stereo unspecified)	1.0%
O=C(CSc1nc2c([nH]c3ccccc32)c(=O)n1-c1ccccc1)Nc1cccc(C(F)(F)F)c1	?
Cc1nn(C(C)(C)C)c(OC(=O)C(C)(C)C)c1Sc1ccccc1	1.3%
Cc1c(C(=O)N2CCCCCC2)c(S(=O)(=O)NCc2ccc(Br)cc2)c(C)n1C	-3.6%
Cc1ccccc1C(=O)NCc1ccc2c(c1)CCN2C(=O)c1ccc(F)cc1	0.8%
CCn1cc2nc(SCc3c(F)cccc3Cl)n(CCc3ccccc3)c(=O)c2n1	-4.9%
Cc1nnc2c(N3CCN(c4ccccc4F)CC3)nc3ccccc3n12	-14%
Carrying on:
SMILES	ClpP mod
COc1ccc(-c2cn3cccnc3n2)cc1NC(=O)Cc1ccccc1	4.1%
CCn1cc(C(=O)NCCc2ccc(OC)c(OC)c2)c(=O)c2cc(S(=O)(=O)N3CCCCCC3)ccc21	2.7%
CCN(CC)C(=O)Cn1c(=O)n(Cc2ccc(C(=O)NCc3ccccc3Cl)cc2)c(=O)c2ccccc21	-10%
CC(C)c1cnc2c(c1SCC(=O)Nc1ccccc1C(F)(F)F)c(=O)n(C)c(=O)n2C	-0.5%
Oc1c(C(c2ccc(Cl)cc2Cl)N2CCN(c3ccccc3)CC2)sc2nc(-c3ccco3)nn12 (stereo unspecified)	-3.9%
COc1ccc(-c2cc(NCc3ccc(F)cc3)n3cnnc3n2)cc1	?
COc1ccc(NC(=O)CCn2nc(-c3ccc(Cl)cc3)c3ccccc3c2=O)cc1	-15%
CC1CCc2onc(C(=O)Nc3ccc(Cl)cc3)c2C1 (stereo unspecified)	2.4%
Clc1ccc2nc(Nc3ccccc3Cl)nc(-c3ccccc3)c2c1	-4.3%
Cc1nc2c(-c3ccccc3)c(C)nn2c(C)c1CCC(=O)NCc1cccc(Cl)c1	-13%
O=C(CN1CCCN(Cc2ccc(F)cc2)S1(=O)=O)Nc1ccc2c(c1)OCCO2	0.3%
CCCCC(CC)Cn1c(Oc2ccccc2)nc2c1c(=O)n(C)c(=O)n2C (stereo unspecified)	2.4%
COc1ccc(-c2nsc(NC(=O)COc3ccccc3OC)n2)cc1	1.4%
Cc1cccc(N2CCN(C(=O)NCc3noc4ccccc34)CC2)c1C	-3.6%
Cc1cc(C)cc(NC(=O)C(C)N2Cc3ccccc3C2=O)c1 (stereo unspecified)	0.9%
COc1ccc(CNC(=O)CN(C)S(=O)(=O)c2ccc3[nH]c4c(c3c2)CCCC4)cc1	?
COc1ccccc1-c1cc(C(F)(F)F)nc(S(=O)(=O)CCCC(=O)Nc2cc(Br)ccc2O)n1	4.5%
O=C(NC1CCCCC1)c1ccc(CSc2nc3cccnc3n2Cc2ccccc2F)cc1	4.2%
O=C(COc1ccc(F)cc1)Nc1ccc(C(=O)OCc2cc(=O)n3nc(C4CC4)sc3n2)cc1	-0.8%
COc1ccc(-c2cc3nc(C4CCN(C(=O)OC(C)(C)C)CC4)c(C(=O)Nc4cc(Cl)cc(Cl)c4)cn3n2)cc1	?
CCOC(=O)CC(=O)CSc1nc2ccsc2c(=O)n1Cc1ccccc1	-2.6%
Cc1ccc(NS(=O)(=O)c2ccc3[nH]c4c(c3c2)CCCC4)cc1N(C)C	-3.4%
Cc1ccc2scc(N3CCN(c4ccccc4)CC3)c(=O)c2c1	-15%
NC(=O)c1c(NC(=O)CS(=O)(=O)c2ccc(Cl)cc2)sc2c1CCCC2	-11%
Nc1ccc2oc(Cc3ccc(Cl)cc3)nc2c1	-2.2%
CCn1cc(C(=O)NCc2ccccc2OC)c(=O)c2cc(S(=O)(=O)N3CCCCCC3)ccc21	-15%
O=C(CC(c1cccs1)N1Cc2ccccc2C1=O)Nc1ccc(Cl)cc1 (stereo unspecified)	3.9%
COc1ccc(-c2c(C)c3ccc(O)c(CN4CCOCC4)c3oc2=O)cc1	4.6%
CCc1cccc(CC)c1NC(=O)CN(C)S(=O)(=O)c1ccc2c(c1)n(C)c(=O)c(=O)n2C	4.4%

A portion of the library; count on the stated rates, not on these rows.
